Bioassay records: PubChem BioAssay, several laboratories
PrP 5UTR inh = inhibition of PrP 5' UTR reporter expression | cell-based PrP 5' UTR mRNA reporter, plate reader | inhibition, % (no concentration beside the values) | 0.35% of 340,000 active | AID 488862;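 active = every replicate at 50% or more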;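 note: 0 = median of the neutral control wells; tested in H4 reporter cells; numbers are from one replicate; inactives centre near -14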
Bead autofluor = counter-screen for toxin protease inhibitors: compound fluorescence | fluorescence intensity (concentration not given with the values) | compound autofluorescence counterscreen, microsphere flow cytometry; active compounds read high | 3.1% of 360,000 active;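 active = at least 3 SD above the mean of all compounds, about 16000 in these data; inconclusive = too few beads counted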;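 note: 100 nL of 1 mM stock went into each well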
Sa RN4220 lethal = kills Staphylococcus aureus RN4220; S. aureus RN4220 growth, OD600, 16 h; inhibition, % (no concentration beside the values); 0.33% of 330,000 active; AID 1259311;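 active = z-score of -3 or lower and OD600 up to 0.18 on both plates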;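 note: plate controls were untreated cells for no effect and reference antibiotic for full effect; stock transfer was 100 nL into about 80 µL; one replicate is shown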
Sa ugtP lethal = growth inhibition of S. aureus ugtP deletion strain | S. aureus RN4220 ugtP deletion, OD600 growth, 16 h; some inactives read as strong as hits | growth inhibition, % (no concentration beside the values) | 0.54% of 330,000 active | AID 1259309;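 active = z-score under -3 and OD600 up to 0.15 on both plates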;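 note: plate controls were untreated wells for no effect and antibiotic for full effect; wells of about 80 µL received 100 nL stock; the first replicate is given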
BJeLR lethal = kills HRASV12-expressing BJeLR cells. BJeLR (HRASV12) viability, CellTiter-Glo ATP luminescence, 48 h; reference of the scale not given here. 0.17% of 300,000 active. inhibition, % (no concentration beside the values);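 active = replicate mean above 50%; inconclusive = above 50% but judged a plate artefact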;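 note: 50 nL library stock added to about 25 µL; numbers are from one replicate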
Mtb hypoxia inh = reduces hypoxia-regulated biosensor signal in M. tuberculosis | fluorescence inhibition, % (concentration not given with the values) | M. tuberculosis hypoxia-regulated fluorescent reporter, fluorescence | 0.1% of 300,000 active;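 active = 35 to 45% if threefold the growth effect, above 45% if 1.5-fold the growth effect; inactive = the rest, general growth blockers included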;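 note: wells of about 50 µL received 100 nL stock; 0% = vehicle wells and 100% = reference inhibitor wells; whole bacteria with a GFP reporter of the hypoxia response; strong numbers were not always called active; many hits fall short of the cut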
Mtb hypoxia inh growth = also measured in Mtb hypoxia inh; calls as there; growth inhibition, %; measured here: M. tuberculosis growth (absorbance);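 0% = vehicle and 100% = reference antibiotic; read after six days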
Numbers without * were called inactive; ? = inconclusive; . = no result given.

SMILES	PrP 5UTR inh	Bead autofluor	Sa RN4220 lethal	Sa ugtP lethal	BJeLR lethal	Mtb hypoxia inh	Mtb hypoxia inh growth
O=c1oc(-c2cc3ccccc3o2)nc2sc3c(c12)CCCC3	-21	10724	7.1	-6	-3	1	2
CC(C)[C@@H](NC(=O)C1CCN(C(=O)[C@@H]2CCCN2C(=O)OC(C)(C)C)CC1)C(=O)NCc1ccc(F)cc1	-12	4151	3.3	5	0	.	.
O=C(Nc1nc(-c2ccncc2)cs1)c1ccco1	-11	3420	-7.5	-12	11	.	.
Cc1cccc(NC(=O)CNC(=O)COC(=O)c2ccc(C(C)(C)C)cc2)c1C	8	3722	3.2	-2	.	-3	9
CCOc1ccc(C(=O)Nc2cc(C)on2)cc1	-23	11477	5.1	1	3	16	3
Cc1cc(C(=O)COc2cccnc2[N+](=O)[O-])c(C)n1Cc1cccs1	7	4098	-4.0	-1	-10	-7	8
Cc1cc(N(CCCl)CCCl)ccc1C=NN=C(N)c1cnccn1	.	.	6.9	0	.	13	9
O=C(Oc1ccc2ccccc2c1)c1ccco1	-25	3061	3.8	-1	-11	5	-6
CCS(=O)(=O)CCSc1nc2ccccc2o1	-20	11105	4.3	-3	5	0	-2
Nc1nonc1C(=O)NCCNCc1c(OCc2ccccc2F)ccc2ccccc12	-22	11191	0.8	-27	8	6	14
COc1cc2c(=O)n(-c3ccc(C)cc3)c(=O)n(CC(=O)c3ccc4c(c3)OCO4)c2cc1OC	-8	5064	-1.6	4	9	.	.
COCCn1c(SCC(=O)Nc2nnc(C)s2)nnc1-c1c[nH]c2ccccc12	-27	9834	-0.8	3	-9	3	7
COc1ccc(C)cc1NC(=O)C1CC(=O)N(Cc2ccco2)C1 (centres undefined)	-6	3591	4.5	8	-5	.	.
CC1Cc2ccccc2N1S(=O)(=O)c1cccc(C(=O)N2CCCCC2)c1 (centres undefined)	-7	6454	0.9	-3	.	-5	-10
CCN1C(=O)/C(=C\N2CCCCCC2)SC1=S	-41	3748	-4.5	1	0	8	9
CCOc1ccc(NC(=O)CN(C)C(=O)c2ccc(N3CCOCC3)c([N+](=O)[O-])c2)cc1OCC	6	5620	.	.	4	.	.
CCOc1ccc(/C=N/NC(=O)CNC(=O)c2ccc(S(=O)(=O)N3CCOCC3)cc2)cc1	-33	2127	.	.	5	.	.
CCOC(=O)C1CCN(CC(=O)Nc2c(C(=O)OC)[nH]c3ccccc23)CC1	.	.	5.9	-3	1	-63	13
CC(C)(C)NC(=O)c1cc(F)c(F)cc1Cl	-14	2412	-1.9	5	-4	.	.
COCCNCc1nc2sc(C)c(-c3ccccc3)c2c(=O)[nH]1	-9	3461	4.9	5	-1	-11	8
COc1ccc(/C(C)=N/NS(=O)(=O)c2cc(C)ccc2C)c(OC)c1	-12	5497	.	.	-4	.	.
CC(=NNC(=O)C1CC1)c1ccc(C)c(C)c1	.	.	4.9	0	.	0	-8
C=CCNC(=S)/N=c1\sccn1C	-9	3204	.	.	-4	.	.
Oc1csc(Cc2nc(-c3ccc4ccccc4c3)cs2)n1	-72	6769	-2.5	47	2	5	0
Cc1c(NC(=O)CSc2cccc3cccnc23)c(=O)n(-c2ccccc2)n1C	-25	9221	1.2	5	-5	3	13

Next part, starting with the last 3 of the part before.
SMILES	PrP 5UTR inh	Bead autofluor	Sa RN4220 lethal	Sa ugtP lethal	BJeLR lethal	Mtb hypoxia inh	Mtb hypoxia inh growth
C=CCNC(=S)/N=c1\sccn1C	-9	3204	.	.	-4	.	.
Oc1csc(Cc2nc(-c3ccc4ccccc4c3)cs2)n1	-72	6769	-2.5	47	2	5	0
Cc1c(NC(=O)CSc2cccc3cccnc23)c(=O)n(-c2ccccc2)n1C	-25	9221	1.2	5	-5	3	13
COc1ccc(C=NNc2cc(C)nc(NS(=O)(=O)c3ccc(C)cc3)n2)cc1	.	.	-2.2	19	.	-9	14
O=C(/C=C/c1ccccc1)Nc1cc(S(=O)(=O)N2CCOCC2)ccc1N1CCCC1	-34	2459	1.7	10	2	9	3
CCCN1CCOC(CC(=O)Nc2ccc([N+](=O)[O-])cc2)C1=O (centres undefined)	-12	4227	9.2	1	-12	12	9
CN1CCCCC1CCN1c2ccccc2Sc2ccc(S(C)=O)cc21 (centres undefined)	-5	6023	0.1	3	0	-1	-3
CC1(C)CC(=O)C2=C(C1)Nc1ccccc1NC2	2	2291	4.5	-1	-2	-2	1
C(=Cc1ccccc1)C=NNc1nc(N2CCOCC2)nc(N2CCOCC2)n1	.	.	6.4	-3	.	7	5
COc1ccc(C(=O)NC2CC3CCCC(C2)N3Cc2ccccc2)c(OC)c1 (centres undefined)	-34	3243	0.9	2	2	-2	0
Cc1ccc2[nH]c(CN3CCN(C)C(CCO)C3)c(C)c2c1 (centres undefined)	-17	3965	5.4	12	-8	7	5
CCCS(=O)(=O)n1nc(-c2ccc(OC)cc2)cc1N	-23	5916	1.8	11	-3	7	9
O=C(Nc1ccc(O)c2c(=O)cc(-c3ccccc3Cl)oc12)c1cccc(Cl)c1	-21	2970	2.7	-1	-15	10	9
CN(C)c1ccc(NC2=C([N+](=O)[O-])CS(=O)(=O)C2)cc1	8	12044	4.1	-6	9	2	2
O=C(Cc1cccc2ccccc12)N/N=C/c1ccc(O)c([N+](=O)[O-])c1	-11	2131	.	.	-2	.	.
COC(=O)c1sc(S(=O)(=O)N2CCCCC2C)c(C(=O)OC)c1C (centres undefined)	11	3064	-0.1	3	.	-11	-13
CC1(C)Cc2cccc(OCC(=O)N3CCN(c4cccc(Cl)c4)CC3)c2O1	6	6238	3.5	-6	0	3	6
Cc1ccc(C)c(Cn2c(=O)n(C)c(=O)c3sccc32)c1	-11	3893	2.9	-1	2	9	-2
CCOCC(=O)N1CCN(c2ccccc2OC)CC1	-15	3939	3.4	4	-1	6	2
CN(C(=O)Cn1nnc(-c2ccc(F)cc2)n1)C1CCS(=O)(=O)C1 (centres undefined)	-7	6480	1.1	2	.	4	1
COc1ccc(N(CC(=O)O)S(=O)(=O)c2ccc(OC)c(OC)c2)cc1	-13	3615	5.4	-5	-11	10	7
O=c1[nH]cnc2ccccc12	-20	4038	2.0	9	6	.	.
O=C(NCc1cccc(Cl)c1)C1CCN(S(=O)(=O)c2ccc(F)cc2)CC1	-5	5227	-1.6	1	3	4	4
COc1cc(NC(=O)CN(c2ccc(C)cc2)S(=O)(=O)c2c(C)noc2C)cc(OC)c1	-13	5306	28	-8	4	-3	-4
CCN(CC)S(=O)(=O)c1ccc(NC(=O)c2ccc(NS(C)(=O)=O)cc2)cc1	-35	5710	6.1	0	4	20	5
Cc1ccc(-c2cc(-c3ccc(C)cc3)[n+](-c3ccc(C(=O)[O-])cc3)c(-c3ccc(C)cc3)c2)cc1	-1	3100	.	.	78*	.	.
COCCN=C1NC(c2ccc(Br)cc2)C(C(=O)OC)=C(C)N1Cc1ccccc1 (centres undefined)	.	.	-4.8	-34	.	-4	8
CCC(=O)NC(=S)Nc1ccccc1C(=O)NC1CCCCC1	-17	2451	.	.	-6	.	.

(continued)
SMILES	PrP 5UTR inh	Bead autofluor	Sa RN4220 lethal	Sa ugtP lethal	BJeLR lethal	Mtb hypoxia inh	Mtb hypoxia inh growth
CNC(=O)c1ccc2c(c1)nnn2C	-21	2233	3.4	8	8	13	6
Cc1ccc(C(=O)/C=C2/NC(=O)CS2)cc1	-45	4061	6.2	-11	3	11	11
COc1cccc(Cn2cc(C=NNC(=O)c3cc(O)cc(O)c3)c3ccccc32)c1	.	.	-1.3	-3	.	10	2
Nc1c2c(nc3sc4c(c13)CCCCC4)CCCCC2	-59	7916	-3.5	-15	13	2	-4
Cc1ccc(C=NNC(=O)c2nnn(-c3nonc3N)c2C)o1	.	.	-0.3	-1	.	5	4
C/C=C/C=N/Nc1nc(-c2ccc([N+](=O)[O-])cc2)cs1	-13	2460	.	.	-9	.	.
O=C(NCc1nnc2c(C(F)(F)F)cc(Cl)cn12)c1ccc(Br)o1	-14	5632	5.9	-12	-9	4	1
Cc1ccoc1C(=O)N1CCCC(CO)(Cc2ccc(F)cc2)C1 (centres undefined)	-38	5212	2.1	7	-6	13	5
COc1ccc(/C=N/NC(=O)c2c([N+](=O)[O-])c(C)nn2C)cc1	-29	2427	.	.	-5	.	.
COc1cccc(Nc2nc3ccc(OC)cc3s2)c1	-76	4168	-5.2	0	-24	12	8
C=CCNc1nc(C(=O)OCC(=O)Nc2cc(S(C)(=O)=O)ccc2Cl)cs1	0	?	1.2	4	-3	-2	-4
COc1ccc2c(CC(=O)Nc3nnc(C4CC4)s3)coc2c1	-13	2225	-4.2	-4	14	-6	-3
O=C(N/N=C/c1ccco1)c1ccccn1	-57	13133	.	.	-1	.	.
Cc1cc(NC(=O)c2cc(C(C)(C)C)oc2C)no1	-28	4828	-3.3	-5	4	-4	-5
COc1ccccc1CNC(=O)COC(=O)c1ccccn1	-15	.	1.6	2	-6	-2	1
Cc1cccc(NC(=O)c2ccc(COc3ccccc3[N+](=O)[O-])o2)n1	-9	4970	3.9	0	-4	1	-5
O=S(=O)(NCCc1cn2ccccc2n1)c1ccc(-c2ccccc2)cc1	-13	5022	5.1	9	2	-8	1
O=C(CNC(=O)c1ccc(Br)cc1)NCCc1nc2ccccc2[nH]1	-21	19972*	-0.4	10	-5	5	1
COc1ccccc1N(C(=O)CN1C(=O)c2ccccc2S1(=O)=O)C(C(=O)NCC1CCCO1)c1ccc(F)cc1 (centres undefined)	-7	2029	2.5	-3	-1	-6	12
Cc1ccc2nsnc2c1N	-83	3847	5.3	4	-25	9	10
O=C1CC(c2cccs2)Cc2nc(NC(=O)C3CC3)ncc21 (centres undefined)	-14	.	2.2	8	-9	18	13
COc1ccc(OC)c(Nc2cc(C)nc3ccccc23)c1	-15	5526	3.1	-8	3	0	7
COc1ccccc1NC(=O)c1ccc(NC(=O)CSc2nc(N)cc(=O)[nH]2)cc1	.	5485	-0.5	5	.	5	7
CCn1cc(CN2CCC(n3nccc3NC(=O)c3ccccc3C)CC2)cn1	-1	4495	3.0	5	1	6	8
Cc1nn(-c2ccccc2)c(Cl)c1/C=N/Nc1nc2ccccc2[nH]1	-54	2211	.	.	9	.	.

(more compounds)
SMILES	PrP 5UTR inh	Bead autofluor	Sa RN4220 lethal	Sa ugtP lethal	BJeLR lethal	Mtb hypoxia inh	Mtb hypoxia inh growth
O=C(CCNS(=O)(=O)c1ccccc1)N1CCC(Cc2ccccc2)CC1	-15	5478	2.6	3	-4	4	-2
CCOC(=O)N1CCN(Cc2nc3c(c(=O)[nH]c(=O)n3C)n2Cc2ccccc2C)CC1	.	11190	2.0	0	-20	13	2
C[N+]1(CC(=O)Nc2ccccc2Cl)CCN(C(=O)c2cccs2)CC1	-5	4091	5.3	-3	-15	8	13
CC1CN(C(C)C(=O)NC(c2ccccc2)c2ccccc2)CC(C)O1 (centres undefined)	-8	5498	6.2	8	-7	-4	-3
Cc1ccc(-n2ncc3c(N4CCC5(CC4)OCCO5)ncnc32)c(C)c1	-1	4161	-2.2	8	18	24	24
CCCCC1CN=C(N)N1CCc1cccc(F)c1 (centres undefined)	.	.	4.7	-13	.	2	4
CNC(=O)c1nnsc1S(=O)(=O)c1ccc(Cl)cc1	-2	2020	7.1	12	13	18	24
COc1ccccc1N(C)S(=O)(=O)c1ccc(C(=O)OCC(=O)NCc2ccco2)cc1	-14	4763	1.9	6	3	.	.
COc1cc2c(cc1OC)/C(=C/C(=O)c1ccc(NC(C)=O)cc1)NCC2	-16	3783	2.7	4	2	4	4
CNC(=O)Cn1ncc2c(C)n(Cc3ccc(C)cc3)c(C)c2c1=O	-19	2952	9.3	4	1	10	6
O=c1c2ccccc2sc2nc(C3CCCCC3)n(Cc3ccco3)c(=O)c12	-12	?	1.9	-21	10	-5	4
O=C(Nc1nccs1)c1ccc(N2C(=O)C3CCCCC3C2=O)cc1 (centres undefined)	-31	4347	-1.2	13	.	11	13
CC(C)(C)c1cc(CN(CCO)CCO)cc(C(C)(C)C)c1O	-24	9789	6.3	8	3	10	4
CCc1ccc(Nc2ccc(C(=O)O)cc2[N+](=O)[O-])cc1	-19	3256	5.1	19	0	8	13
O=C(c1cc2c(s1)CCCC2)N1CCN(C(=O)C2CCCO2)CC1 (centres undefined)	-12	10986	3.0	0	6	10	9
C#Cc1ccc([C@@H]2C=C(C(=O)N3CCN(Cc4ccccc4)CC3)O[C@H](OCCCCO)C2)cc1	-12	3157	.	.	19	.	.
